# VDR inh: blocks the human vitamin D receptor; actives 0.93% (n = 400,000); VDR-SRC2-3 peptide fluorescence polarization, 2 h; P11473; Potency, µM, without a hit: max response, negative = inhibition, most hits filed as inhibitors; AID 504847; active = well fitted inhibition curve with a large enough effect; inconclusive = small, poorly fitted or top-dose-only effect, or another doubt; inactive = no such curve, though single readings can be large or run the other way; also: series mostly up to about 120 µM
# Target sequence (P11473 whole entry, looked up): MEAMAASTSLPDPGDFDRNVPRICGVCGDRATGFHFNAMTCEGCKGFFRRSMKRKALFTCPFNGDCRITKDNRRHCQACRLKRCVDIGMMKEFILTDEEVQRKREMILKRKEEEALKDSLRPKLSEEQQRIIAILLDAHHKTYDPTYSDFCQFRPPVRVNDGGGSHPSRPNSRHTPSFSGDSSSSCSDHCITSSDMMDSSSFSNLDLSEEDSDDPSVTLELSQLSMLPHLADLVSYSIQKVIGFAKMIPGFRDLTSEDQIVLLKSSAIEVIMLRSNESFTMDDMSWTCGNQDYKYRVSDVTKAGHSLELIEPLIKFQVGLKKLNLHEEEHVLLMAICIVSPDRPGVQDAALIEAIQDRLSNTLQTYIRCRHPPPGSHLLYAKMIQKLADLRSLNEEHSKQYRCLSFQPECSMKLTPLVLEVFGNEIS
#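 Compounds are added to VDR with labelled SRC2-3 coactivator peptide and held 2 h at room temperature. Inhibition of the VDR–peptide interaction is then read as a change in fluorescence polarization.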
# Starred values were filed as active, the others as inactive; ? = inconclusive; & = joins results of further samples. % is scaled to controls: 0 for no effect and ±100 for the full control effect; potency is read from the fitted curve at half-maximal effect. Some of the compounds tested, so the mix of outcomes need not match the whole.
SMILES | VDR inh
COc1cccc(NC(=O)NC2CCN(CC(=O)Nc3ccccc3[N+](=O)[O-])CC2)c1 | 13%
CC(C)c1ccc(NC(=O)Cn2cc(S(=O)(=O)N3CCN(c4ccccc4F)CC3)c3ccccc3c2=O)cc1 | -6%
Cn1c(COc2ccc3ccccc3c2)nnc1SCC(=O)OC1CCCCC1 | -6%
CC(C)(C)C1CCC2(CC1)NC(CO)(CO)CO2 (stereo not drawn) | 0%
O=C(CCNC(=O)c1ccccc1)NCc1ccccc1F | -6%
CC(OC(=O)CN1C(=O)C2CC=CCC2C1=O)C(=O)Nc1ccc(F)cc1Cl (stereo not drawn) | ?
O=c1onc(-c2c(F)cccc2F)n1-c1ccccc1Cl | 23%
O=C(Nc1ccc(Br)cc1)C1CCN(c2ncccn2)CC1 | 6%
COc1ccc(Cl)cc1NC(=O)c1cc(S(=O)(=O)N2CCc3ccccc32)cn1C | 6%
Cc1ccc(NC(=O)CN(c2ccccc2)S(=O)(=O)N(C)C)cc1C | 6%
CCCCOc1ccc(C(=O)C(CN2CCOCC2)c2ccccc2)cc1 (stereo not drawn) | -5%
COc1ccccc1C(=O)Nc1c[nH]c(=O)[nH]c1=O | -2%
S=C(NCc1ccco1)NCc1ccccc1Cl | -3%
Cc1nc2sc(C(c3ccco3)N3CCN(c4ccccc4F)CC3)c(O)n2n1 (stereo not drawn) | 10%
CCN1C(=O)c2ccccc2S(=O)c2ccc(C(=O)NCc3ccccn3)cc21 (stereo not drawn) | -15%
C=C(C)Cn1c(C2CC(=O)N(c3ccccc3F)C2)nc2ccccc21 (stereo not drawn) | -12%
COc1ccc(C(=O)NCC(c2cccnc2)N2CCc3ccccc32)cc1 (stereo not drawn) | 0%
CC(C)(C)C1C=C(Sc2ccccc2)C(=O)O1 (stereo not drawn) | -13%
O=C(NNC(=O)c1sccc1-n1cccc1)c1ccccc1 | -21%
CCC(O)(CC)C(=O)N=Nc1c(O)[nH]c2ccccc12 | -11%
COc1ccc(C)cc1N(C)C(=O)c1c2c(nc3ccccc13)C(=O)N(C1CCCCC1)C2 | -4%
Cn1c(C(F)(F)F)nc2c(=O)oc3ccccc3c21 | 22%
CCc1ccc(NC(=O)c2cc(CC(C)C)on2)cc1 | -6%
CC(C)NC(=O)c1ccccc1NC(=O)CCc1ccccc1 | 5%
O=C1c2ccccc2C(O)N1Cc1ccc2c(c1)OCO2 (stereo not drawn) | -8%
COc1cc(NC(=O)C2CCC(CNc3c(N4CCC(C)CC4)c(=O)c3=O)CC2)cc(OC)c1 (stereo not drawn) | 5%&15%
COC(=O)c1ccc(N2CCN(C(C)=O)CC2)c(NC(=O)c2cccnc2)c1 | -3%
CC(=O)Nc1ccc(-n2nnnc2SCC(=O)N2CCN(C(=O)c3ccco3)CC2)cc1 | -6%
CC1CCN(S(=O)(=O)c2ccc(NC(=O)CN3CCOCC3)cc2)CC1 | 4%
O=C(Nc1ccccc1-c1nc2ccccc2[nH]1)c1ccc(N2C(=O)CCC2=O)cc1 | 7%
O=C(CN1CCCCCC1)N/N=C/c1cccc(Cl)c1 | -9%
Cn1c(SCc2ccccc2)nc(N)c(N=O)c1=O | ?
COC(=O)C1=C(C(=O)OC)[C@@H]2Nc3ccccc3[C@@]23C[C@@H](C(=O)OC)N(C(=O)C2CCC2)C3=N1 | -6%
CCn1c(SCC(=O)NNC(=O)c2ccc(C)cc2)nnc1-c1ccco1 | -21%
S=C(NCCc1ccncc1)Nc1cccc2ccccc12 | -3%
CCOC(=O)c1cc2occc2n1CC(=O)NC1CCC(C)CC1 (stereo not drawn) | 7%
CC(C)(C)C(=O)NC1CC(=O)N(c2ccc3c(c2)OCCO3)C1 (stereo not drawn) | 1%
Cc1ccccc1-c1nc(CS(=O)(=O)CC(=O)Nc2c(C)cccc2C)c(C)o1 | -9%
CCN(CC(=O)NCc1cccs1)C(=O)c1ccc(OC)c(OC)c1 | -4%
COc1ccc2c(c1)c(C(O)CN1CCN(Cc3ccc4c(c3)OCO4)CC1)c(C)n2C (stereo not drawn) | -6%
c1cnc(NCCNc2ncccn2)nc1 | 13%
COC(=O)c1cccc(NC(=O)c2cc3sccc3n2C)c1 | 1%
O=C(Nc1nnc(SCC(=O)N2CCCc3ccccc32)s1)c1cccc2ccccc12 | -14%
CN1CCN(S(=O)(=O)c2ccc(N3CCN(S(=O)(=O)/C=C/c4ccccc4)CC3)nc2)CC1 | -6%
CCc1ccccc1Nc1nc(N)nc(CSCC(=O)c2cc(C)n(C)c2C)n1 | -1%

# Reformatted: 7 of the compounds above.
VDR inh	mol
7%	CCOC(=O)c1cc2occc2n1CC(=O)NC1CCC(C)CC1 (stereo not drawn)
1%	CC(C)(C)C(=O)NC1CC(=O)N(c2ccc3c(c2)OCCO3)C1 (stereo not drawn)
-9%	Cc1ccccc1-c1nc(CS(=O)(=O)CC(=O)Nc2c(C)cccc2C)c(C)o1
-4%	CCN(CC(=O)NCc1cccs1)C(=O)c1ccc(OC)c(OC)c1
-6%	COc1ccc2c(c1)c(C(O)CN1CCN(Cc3ccc4c(c3)OCO4)CC1)c(C)n2C (stereo not drawn)
13%	c1cnc(NCCNc2ncccn2)nc1
1%	COC(=O)c1cccc(NC(=O)c2cc3sccc3n2C)c1

# 2 entries from above in a different format.
VDR inh	compound
-1%	CCc1ccccc1Nc1nc(N)nc(CSCC(=O)c2cc(C)n(C)c2C)n1
-6%	CC(=O)Nc1ccc(-n2nnnc2SCC(=O)N2CCN(C(=O)c3ccco3)CC2)cc1

# Next structures.
SMILES | VDR inh
CN1CCN(C(=O)/C=C/c2ccc(Cl)c(Cl)c2)CC1 | 3%
CCc1ccccc1N(CC)C(=O)CCc1nc(-c2ccc(C)cc2)no1 | -16%
O=C(NC1CCCCC1)Nn1c(-c2ccccc2)nc2ccccc2c1=O | 7%
Cc1c(C)c2c(c(C)c1O)CC[C@@](C)(CCC[C@@H](C)CCC[C@@H](C)CCCC(C)C)O2 | -6%&-1%
CCOc1ccccc1CNC(=O)Cn1ncn2nc(-c3cccs3)cc2c1=O | 9%
Cc1noc(C)c1CSc1nc2ccccc2s1 | ?
CCn1c(SCC(=O)NCCc2ccccc2)nnc1-c1ccco1 | 4%
Cc1nnc2ccc(N3CCN(C(=O)c4ccccc4)CC3)nn12 | -3%
COc1cc(-c2nc3sccn3c2Nc2c(C)cccc2C)ccc1O | ?
O=C(O)c1ccc(NS(=O)(=O)c2ccc3c(c2)C2C=CCC2C(c2ccccc2F)N3)cc1 (stereo not drawn) | ?
CCOC(=O)c1c(NC(N)=O)sc(C)c1C | -14%
Cc1ccc(S(=O)(=O)N2CCN(C(=O)Cn3c(=O)cnc4ccccc43)CC2)c(C)c1 | -2%
COc1cc(S(=O)(=O)Nc2ncn[nH]2)ccc1Cl | -5%
Cn1c(-c2ccccc2)cnc1SCC(=O)NCc1ccco1 | 3%
O=C(c1cccs1)N1CCN(C23CC4CC(CC(C4)C2)C3)CC1 | -25%
CC1(C)CC(NC(=O)c2cc(S(=O)(=O)N3CCOCC3)c(Cl)cc2Cl)CC(C)(C)N1 | 5%
COCCn1c(SCC(=O)c2c(N)n(C3CC3)c(=O)[nH]c2=O)nnc1-c1cccc(C)c1 | -23%
CCOC(=O)N1CCN(C(=O)c2c[nH]c3ccc(S(=O)(=O)N(C)c4ccc(OCC)cc4)cc3c2=O)CC1 | -3%
COc1cccc(-c2nnc(SCC(=O)N3CCCc4ccccc43)o2)c1 | 17%
O=C(CN1CCc2ccccc2C1)Nc1cccc(S(=O)(=O)N2CCCC2)c1 | 1%
Cc1ccc(CC(=O)NC(C)CCc2ccccc2)cc1 (stereo not drawn) | 16%
Cc1ccc(S(=O)(=O)Oc2ccc(/C=N/NC(=O)c3cccnc3)cc2)cc1 | 10%
CCN(CC)c1nc(Nc2ccccc2)nc(Oc2ccc(C(=O)OC)cc2)n1 | -1%
O=C(CSc1ccc2ccccc2n1)NCc1ccc2c(c1)OCO2 | -20%
COc1ccc(NC(=O)C(c2ccccc2)N(C)C(=O)CNC(C)=O)cc1 (stereo not drawn) | -2%
CCCCNC(=O)C1c2cc(OC)c(OC)cc2C(=O)N(C)C1c1cccs1 (stereo not drawn) | -8%
CCOC(=O)C1(Cc2ccccc2)CCN(Cc2csc(C(C)=O)c2)CC1 | 13%
CCCOc1ccc(C(=O)NNC(=S)NC(=O)c2cc(-c3ccc(Cl)cc3)nc3ccccc23)cc1 | 8%
O=C(CSc1nc(C(F)(F)F)cc(=O)[nH]1)Nc1ccc2c(c1)OCCO2 | -5%
CCCC(=O)NNc1cc(=O)c2c(=O)n(C)c(=O)n(C)c2[nH]1 | -5%
CCCn1c(SCC(=O)Nc2ccccc2N2CCCCC2)nc2c1c(=O)n(C)c(=O)n2C | 72%
CCOC(=O)c1c(NC(=O)c2ccc(S(=O)(=O)N(CCOC)CCOC)cc2)sc2c1CC(C)(C)NC2(C)C | 4%
CCc1noc(C)c1C(=O)Nc1cc(Cl)ccc1N1CCOCC1 | 2%
CCOc1ccc(N(CC(=O)NCc2ccccc2)C(=O)Cn2nnc(-c3ccc(C)o3)n2)cc1 | 4%
Cc1ccccc1NC(=O)Cn1nc(-c2ccccc2)nc1-c1ccccc1 | 9%
Cc1ccc(N(CN2C(=O)C3C4CCC(C4)C3C2=O)C(=O)c2ccco2)cc1 (stereo not drawn) | -13%
CCN(CC(=O)NCc1ccc(Cl)cc1)C(=O)/C=C/c1cc(OC)c(OC)c(OC)c1 | -1%
Cc1ccc2nc(NC(=O)C3CCCN(S(=O)(=O)c4cnc[nH]4)C3)sc2c1 (stereo not drawn) | -9%
Nc1c(S(=O)(=O)c2cccs2)c2nc3ccccc3nc2n1Cc1ccccc1 | -18%
c1ccc(-c2csc(N3CCCCCC3)n2)cc1 | 3%
O=C(O)CNC(=S)N(Cc1ccccc1Cl)C1CCCC1 | -24%
O=C(CSc1ccc(F)cc1)NC(=O)NCc1ccccc1 | -7%
C/C(=C/C=N/Nc1nc(N2CCCCC2)nc(N2CCCCC2)n1)c1ccccc1 | 5%
Cc1ccccc1OCC(=O)Nc1ccc2c(c1)Cc1ccccc1-2 | 4%
COc1ccc(C=NNc2ccc(S(=O)(=O)Nc3ccccc3C(=O)O)cc2[N+](=O)[O-])c(OC)c1 | 89µM*
Cc1cc2c3c([nH]c2cc1S(=O)(=O)N1CCC2(CC1)OCCO2)CC(C)(C)CC3=O | -13%
O=C(O)CNC(=O)c1ccc(OC(F)F)cc1 | 12%
O=c1cnc2cnc(N3CCOCC3)nc2n1C[C@H]1CCCO1 | -3%
Cc1nc(Nc2cccc(F)c2)c2oc3ccccc3c2n1 | -9%
CCOCC(O)CS(=O)Cc1ccccc1 (stereo not drawn) | -14%
CN(C)S(=O)(=O)c1cccc(NC(=O)C2Cc3ccccc3CN2C(=O)c2ccco2)c1 (stereo not drawn) | 1%
O=C(Oc1ccccc1N1CCOCC1)c1sccc1Br | 5%
CS(=O)(=O)N(CCc1ccccc1)CC(=O)N1CCN(c2ccccc2F)CC1 | -13%
COc1cc(NC(=S)NC(=O)c2ccc(F)cc2)ccc1NC(=O)c1ccco1 | 4%
COc1ccc(C)cc1NC(=O)c1sc2ncn(CC(=O)N3CCCCC3)c(=O)c2c1C | -12%
Cc1c(C#N)c(NC(=O)CCl)n(Cc2ccc(F)cc2)c1C | -25%
COc1cc2c(cc1NC(=O)c1cncc(Br)c1)oc1ccccc12 | -10%
COc1cccc(C(=O)OCC(=O)NC2CCCc3ccccc32)c1O (stereo not drawn) | 12%
COc1ccc(C(=O)CC(=O)C(=O)NCCc2cccc(C)c2)cc1 | ?
Cc1ccc(-c2csc(C3=C(O)CN(NC(=O)c4ccco4)C3=N)n2)cc1 | 4%

# Next section:
SMILES | VDR inh
CCC(Oc1ccc(F)cc1)C(=O)N1CCCCCCC1 (stereo not drawn) | -3%
OCCNc1nc(Nc2ccccc2C(F)(F)F)nc(N2CCCC2)n1 | -27%
COc1ccc(C2C([N+](=O)[O-])=C(C)N(C)C(=O)N2C)cc1OC (stereo not drawn) | 13%
CN(C(=O)c1ccno1)c1nnc(-c2cccnc2)s1 | 4%
O=C(CSc1ncn[nH]1)N/N=C/c1ccc(F)cc1 | 12%
CCOC(=O)c1ccc(OC(=O)c2cn(-c3ccc(C)cc3)c(=O)c3ccccc23)cc1 | -2%
CCN(CC(=O)Nc1c(F)cccc1F)C(=O)Cc1csc(-c2ccc(OC)c(OC)c2)n1 | -14%
COc1ccc(Br)c(C(=O)Nc2cccc(S(=O)(=O)N3CCOCC3)c2)c1 | -7%
CCOC(=O)C1=C(C)N(c2ccccc2)C(=O)/C1=C\c1cccs1 | -18%
CCN(CC)S(=O)(=O)c1cc(C(=O)OCC(=O)Nc2c(F)cccc2F)ccc1F | -6%
CN1CCc2c(sc(N)c2C(=O)O)C1 | 9%
O=C1c2ccccc2C(=O)c2c1cccc2N1CCCC1 | -27%
CCC(/C=C/C(C)C1CCC2C3CCC4=CC(=O)CC[C@@]4(C)C3CC[C@@]12C)C(C)C (stereo partly drawn) | -8%
CC12CCC(C(=O)Nc3cccc(Cl)c3Cl)([C@H](Br)C1=O)C2(C)C (stereo partly drawn) | -3%
O=C(Nc1cccnc1)c1ccccc1Cl | 6%
COc1ccc(CNc2oc(-c3ccc(COc4ccccc4C)o3)nc2C#N)cc1 | 11%
Cc1ccc(N=C2NC(=O)/C(=C/C=C/c3ccco3)S2)cc1 | ?
Nc1nncn1C(=O)c1ccc(Cl)cc1Cl | 10%
O=C(NCCC1=CCCCC1)C1CCN(Cc2cnn(-c3ccccc3)c2-n2cccc2)CC1 | 1%
CN(C)c1ccc(NC(=O)CSc2nc3ccccc3c(=O)n2C2CCCCC2)cc1 | -6%
CCc1nnc(NC(=O)CCS(=O)(=O)c2ccc(C)cc2)s1 | -7%
O=C(N/N=C/c1c(O)ccc2ccccc12)c1ccc(CO)nc1 | -7%

# Compound activity (PubChem)
